Compound activity from PubChem.
KCNQ2 enhance: enhances the rat KCNQ2 potassium channel; actives 0.54% (n = 310,000); O88943; B-score at 10 µM; CHO-K1 KCNQ2, FluxOR thallium flux fluorescence; active compounds read high;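 active means fluorescence ratio B-score at least 3 SD of library B-scores, with initial fluorescence B-score within 3 SD, cut at about 5.3 in these data; same plate scores as AID 2156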;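 further: B-score of peak minus minimum over baseline fluorescence ratio after K+ and Tl+ stimulus; positive B-score means potentiation of KCNQ2 with more thallium influx and brighter signal; only the inactives scoring about 0 or higher are listed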
Target sequence (O88943 whole entry, looked up): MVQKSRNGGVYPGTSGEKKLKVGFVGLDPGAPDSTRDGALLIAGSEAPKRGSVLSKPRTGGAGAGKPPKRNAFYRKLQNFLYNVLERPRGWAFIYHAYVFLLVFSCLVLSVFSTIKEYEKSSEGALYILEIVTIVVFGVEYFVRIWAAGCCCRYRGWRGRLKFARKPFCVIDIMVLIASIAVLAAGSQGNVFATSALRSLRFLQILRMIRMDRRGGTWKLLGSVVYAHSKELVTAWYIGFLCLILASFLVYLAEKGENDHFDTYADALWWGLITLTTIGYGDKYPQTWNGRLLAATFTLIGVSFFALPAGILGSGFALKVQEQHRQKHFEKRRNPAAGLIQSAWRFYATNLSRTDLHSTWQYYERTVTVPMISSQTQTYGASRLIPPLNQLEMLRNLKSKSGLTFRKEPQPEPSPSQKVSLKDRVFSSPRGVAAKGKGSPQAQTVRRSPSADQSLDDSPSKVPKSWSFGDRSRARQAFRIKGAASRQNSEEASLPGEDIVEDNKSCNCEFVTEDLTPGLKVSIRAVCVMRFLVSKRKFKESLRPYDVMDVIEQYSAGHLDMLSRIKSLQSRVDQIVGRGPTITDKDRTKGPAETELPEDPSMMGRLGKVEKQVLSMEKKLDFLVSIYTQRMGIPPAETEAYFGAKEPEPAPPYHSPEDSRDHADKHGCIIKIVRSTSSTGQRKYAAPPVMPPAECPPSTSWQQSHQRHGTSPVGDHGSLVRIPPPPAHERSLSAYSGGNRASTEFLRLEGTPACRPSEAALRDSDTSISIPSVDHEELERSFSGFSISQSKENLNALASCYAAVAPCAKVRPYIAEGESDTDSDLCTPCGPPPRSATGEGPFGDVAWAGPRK
KCNQ2 enhance baseline: also measured in KCNQ2 enhance; calls as there; B-score; compound at 10 µM; measured here: initial fluorescence intensity artifact check;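 brightness before thallium and not channel activity; 0 = typical well and far values either way flag optical interference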
The depositor's hits bear a star. Not all compounds are listed (hit frequency here may not be typical).

SMILES | KCNQ2 enhance | KCNQ2 enhance baseline
Cc1ccccc1C(=O)NC1CCN(CC(=O)Nc2ccc3c(c2)OCO3)CC1 | 1.1 | -1.1
Cc1ccc(CNC(=O)COc2ccc(C)nc2[N+](=O)[O-])cc1 | 0.82 | 3.7
CCS(=O)(=O)c1nc(S(=O)(=O)c2ccc(Cl)cc2)c(N2CCC(C(N)=O)CC2)s1 | 1.5 | -0.87
CCOC(=O)CC1C(=O)NCCN1C(=O)Nc1ccc(Cl)cc1 (stereo not given) | 0.06 | -1.1
COc1cc2c(C)nc3c(c(C)nn3-c3ccccc3)c2cc1OC | 0.94 | 0.86
O=C(C1=C(O)C(=O)N(CCCN2CCOCC2)C1c1ccccn1)c1cc2ccccc2o1 (stereo not given) | 1.1 | -1.2
CN1CCN(C(=O)c2ccc3c(c2)S(=O)(=O)c2ccccc2C3=O)CC1 | 0.01 | -0.61
CCOC(=O)C1CCCN(Cc2nc(N)nc(Nc3ccccc3OC)n2)C1 (stereo not given) | 0.56 | 0.49
O=[N+]([O-])c1ccccc1S(=O)(=O)Nc1ccc(-c2ccc(N3CCOCC3)nn2)cc1 | 0.24 | 0.66
CCCN(CCC)C(=O)c1ccc2c(c1)OCO2 | 0.53 | 0.44
CN(C(=O)c1ccncc1)C1CCCCC1 | 0.58 | 0.56
Clc1ncccc1-c1nc2ccccc2s1 | 0.39 | -1.8
O=C(c1sc(N2CCOCC2)nc1-c1ccccc1)N1CCCCC1 | 0.89 | -2.2
CC/C=C/C(=O)N1CC2(CC(c3cccc(NC(=O)CCCCC)c3)=NO2)C[C@H]1C(N)=O (stereo not given in full) | 0.21 | -1.7
C=CCNC(=S)/N=c1/ccccn1CCC | 0.18 | 1.5
Cc1cc(C)c(S(C)(=O)=O)c(S(=O)(=O)c2ccc(Cl)cc2)n1 | 1.4 | 0.74
CCNc1nc(NC(C)C)nc(NS(=O)(=O)c2ccc(C)cc2)n1 | 1 | -1.6
CC1CCc2sc3nc(N4CCN(CCO)CC4)n4ncnc4c3c2C1 (stereo not given) | 3 | -0.63
CC(C)(C)c1ccc(/C=C/C(=O)Nc2ncccn2)cc1 | 0.42 | 1.2
O=C(NNC1=NCCCCC1)Nc1ccc(Cl)cc1 | 1.1 | 0.29
COc1cc(CNCc2ccc(C(=O)O)cc2)ccc1OCc1ccc(F)cc1 | 0.24 | 1.2
Cc1cc(C)c2nc(N3CCC(C(=O)NCCCN4CCCC4=O)CC3)sc2c1 | 0.88 | 3
Cc1ccc(SCC(=O)Nc2nncs2)cc1 | 0.55 | 0.18
O=C(NCc1ccccn1)C(=O)NCC(c1ccco1)N1CCN(c2ccc(F)cc2)CC1 (stereo not given) | 0.1 | 0.07
CCOc1ccc(-n2c(SC(C)C(=O)OC)nc3c(c2=O)SCC3)cc1 (stereo not given) | 1.1 | 0.49

Reprinted from the part before: seven entries, followed by the next part.
SMILES | KCNQ2 enhance | KCNQ2 enhance baseline
CC(C)(C)c1ccc(/C=C/C(=O)Nc2ncccn2)cc1 | 0.42 | 1.2
O=C(NNC1=NCCCCC1)Nc1ccc(Cl)cc1 | 1.1 | 0.29
COc1cc(CNCc2ccc(C(=O)O)cc2)ccc1OCc1ccc(F)cc1 | 0.24 | 1.2
Cc1cc(C)c2nc(N3CCC(C(=O)NCCCN4CCCC4=O)CC3)sc2c1 | 0.88 | 3
Cc1ccc(SCC(=O)Nc2nncs2)cc1 | 0.55 | 0.18
O=C(NCc1ccccn1)C(=O)NCC(c1ccco1)N1CCN(c2ccc(F)cc2)CC1 (stereo not given) | 0.1 | 0.07
CCOc1ccc(-n2c(SC(C)C(=O)OC)nc3c(c2=O)SCC3)cc1 (stereo not given) | 1.1 | 0.49
Cc1ccc(C(=O)NCCc2csc(C)n2)cc1 | 0.75 | 0.22
COc1cccc(NC(=O)CN(C)C(=O)CNC(=O)c2ccc(Oc3ccccc3)cc2)c1 | 1 | 0.69
CC(c1ccccc1)C1CC(=O)N(CC(=O)O)C1=O (stereo not given) | 0.34 | -2.7
COCCNc1oc(-c2cccs2)nc1S(=O)(=O)c1ccc(C)cc1 | 0.65 | 2.1
COc1ccc(-c2csc(N(CCCN(C)C)C(=O)c3ccc(Br)cc3)n2)cc1 | 0.33 | -0.01
Nc1nc2n[nH]nc2c(=O)[nH]1 | 1.7 | -0.27
CC(=O)Nc1cccc(C(=O)OCC(=O)NC(=O)c2ccccc2)c1 | 0.66 | 0.01
CC(=O)Nc1cccc(Oc2nc(C(F)(F)F)nc3ccccc23)c1 | 1.5 | -2.6
Cc1ccc(N2CC(C(=O)NCc3nnnn3-c3ccc(C)c(C)c3)CC2=O)cc1 (stereo not given) | 0.83 | -1.3
CC(C)COn1c(=S)[nH]c2ccccc2c1=O | 0.61 | 0.87
COc1ccc(NC(=O)C(c2ccc(C)cc2)N(C)C(=O)CNC(C)=O)cc1 (stereo not given) | 1.1 | 0.35
CCCn1cnc2c(N)c(C)c(C)cc21 | 0.77 | 1.2
O=C1CC(c2ccc(S(=O)(=O)N3CCN(c4ccccc4)CC3)cc2)CN1 (stereo not given) | 0.15 | 0.8
Cc1ccc(C(=O)NCCNC(=O)c2ccc(C)o2)o1 | 0.2 | 0.58
C=CCc1c(OC(C)=O)c2ccccc2n(C)c1=O | 0.39 | -0.89
COc1ccc(NC(=O)CSc2nc3c(sc4ccccc43)c(=O)n2CCCN2CCCC2)cc1 | 1.1 | -0.24
Cc1ccc(-n2c(SCC(=O)N3CCCCC3)nc(O)c(Cc3ccccc3)c2=O)cc1 | 0.76 | -2.2
CC12CN(C(=O)c3ccccc3Br)CC(C)(CN(C(=O)c3ccccc3Br)C1)C2=O | 1.3 | 2.7
COc1cccc(N2CCN(Cc3ccco3)CC2)c1 | 0.67 | -1.5
CCOC(=O)c1cc(-c2ccc(OC)cc2)n[nH]1 | 0.4 | -0.43
COC(=O)c1ccc(NS(=O)(=O)c2cc3c4c(c2)CCC(=O)N4CCC3)cc1 | 0.65 | -1.8
O=C(NCCCn1ccnc1)c1cc(S(=O)(=O)N2CCOCC2)ccc1F | 0.09 | 0.3
CC(C)(C)c1cc(=O)[nH]c(SCc2ccccc2)n1 | 1.1 | 0.47
CC(=O)c1cccc(CN2CCN(C3CCCC3)C(CCO)C2)c1 (stereo not given) | 2.5 | -0.99
CCC(C)NC(=O)C1CCC(CNS(=O)(=O)c2ccc3c(c2)N(C(C)=O)CCO3)CC1 (stereo not given) | 0.68 | -1.8

More results.
SMILES | KCNQ2 enhance | KCNQ2 enhance baseline
CSc1ncc(CN2CCN(CCC(C)C)C(CCO)C2)cn1 (stereo not given) | 0.79 | -0.47
CC(C)[C@H]1COCCS(=O)(=O)N1Cc1ccccc1F | 0.25 | -0.01
CCOc1ccc(N(CC(=O)Nc2cc(OC)cc(OC)c2)S(=O)(=O)c2c(C)[nH]c(=O)[nH]c2=O)cc1 | 1.1 | -0.03
CC(Oc1ccc(Cl)cc1Cl)C(=O)Nc1cccnc1 (stereo not given) | 1.3 | -1.2
CCc1c(C)nc2nc(SCc3ccccc3)[nH]n2c1=O | 0.01 | 1.1
CCOC(=O)/C(C#N)=C/c1cccc([N+](=O)[O-])c1 | 0.36 | -2.4
CCCCOc1ccc(N2C(=O)CC(N(O)c3ccccc3)C2=O)cc1 (stereo not given) | 0.43 | 1.2
OCCNCCOCCOc1ccccc1-c1ccccc1 | 0.72 | -0.48
Cc1ccc(Nc2c(-c3cccnc3)nc3ccc(Br)cn23)cc1 | 0.81 | 2.7
Cc1ccc(C(=O)OCC(=O)N2CCc3ccccc32)cc1 | 0.87 | -0.6
COC1=CC(=O)CC(C)C12Oc1c(Cl)c(OC)cc(OC)c1C2=O (stereo not given) | 1.4 | 1.3
Cc1cc(C)n2nc(SCc3cc(=O)oc4cc(C)c(C)cc34)nc2n1 | 1.2 | 3.9
COc1ccc(N2C(N)=NC(N)=NC23CCCC3)cc1 | 1.9 | -1.3
O=C(Cn1nnc(-c2cc(C(F)(F)F)cc(C(F)(F)F)c2)n1)NNC(=S)Nc1ccc(Cl)cc1 | 0.71 | 2.3
O=C(c1nc2ccccn2c1CN1CCN(c2ccccc2O)CC1)N1CCCC1 | 1.4 | 0.07
O=C(NCc1nc(-c2ccc(C(F)(F)F)cc2)no1)Nc1ccc(F)cc1F | 0.05 | -1.9
CCOC(=O)Cc1csc(NC(=O)Cc2ccccc2)n1 | 0.22 | 0.43
Cc1sc2nc[nH]c(=S)c2c1-c1ccccc1 | 12* | -0.06*
O=C1NC2(CCCCCC2)C(=O)N1Cc1ccc(Br)cc1 | 2.6 | 1
CCC(C)[C@H](NC(=O)NCc1ccccc1)C(=O)O (stereo not given in full) | 1.5 | 1.1
CCN(CC(=O)NCc1ccc(F)cc1)S(=O)(=O)c1ccc(C)cc1 | 1.1 | 0.02
COc1ccc2c(c1)c(=O)oc1c(C)c(OC(C)C(=O)N[C@@H](Cc3c[nH]c4ccc(O)cc34)C(=O)O)ccc12 (stereo not given in full) | 0.78 | -1.9
O=C(Nc1cccc(S(=O)(=O)N2CCCCC2)c1)c1ccc(S(=O)(=O)C(F)F)cc1 | 1.2 | -0.91
CC(C)OC(=O)CSc1nc(N2CCOCC2)c2c(c1C#N)CC(C)(C)OC2 | 1.4 | 1.4
O=C(c1ccco1)N1CCN(C(=O)c2cc(Cl)nc3ccccc23)CC1 | 2.1 | -1.2

(more compounds)
SMILES | KCNQ2 enhance | KCNQ2 enhance baseline
Cn1c(NCc2ccco2)nc2c1c(=O)n(Cc1ccc(Cl)c(Cl)c1)c(=O)n2C | 0.46 | 0.11
O=C(/C=C/c1cccc([N+](=O)[O-])c1)N1CCN(C(=O)c2ccco2)CC1 | 0.57 | 1.4
COc1ccc(NC(=O)CS(=O)CC(=O)Nc2cccnc2)cc1 (stereo not given) | 0.97 | 2.2
CCCOc1c(Br)cc(C(=O)OCC(=O)NC2CC2)cc1OC | 0.81 | -0.01
O=C(NCCN1CCCC1)c1cc(-c2ccncc2)nc2ccc(S(=O)(=O)N3CCOCC3)cc12 | 1 | -0.95
Cc1ccc(S(=O)(=O)NN2C(=O)/C(=C/c3cccc(F)c3)SC2=S)cc1 | 5.2 | -2
CCOC(=O)CN1N=C(/C=C/c2ccc(C)cc2)CCC1=O | 0.18 | 1.5
CC1SC(c2ccc(Cl)cc2Cl)NC1=O (stereo not given) | 0.03 | 0.06
Cc1ccc(-n2cc(CNC(C)c3cnn(C)c3)c(-c3ccc(F)cc3)n2)cc1 (stereo not given) | 1.2 | 0.02
CCOC(=O)Cc1csc(NC(=O)c2ccc(Cl)nc2)n1 | 0.31 | 0.5
C/C(CCC(C)C)=N\Nc1ccc(S(N)(=O)=O)cc1[N+](=O)[O-] | 1.4 | 0.02
Clc1ccccc1OCCCCN1CCNCC1 | 0.92 | -0.07
Nc1nc2c(ncn2[C@H]2C[C@H](O)[C@@H](CO)O2)c(=O)[nH]1 | 0.27 | 1.3
Cc1ccc(-n2c(=O)c3sccc3n(CC(=O)NCC3CCCO3)c2=O)cc1F (stereo not given) | 0.36 | -1.3
Cc1c(Br)cc(C(=O)OC2CCN(C)CC2)c(C)c1C | 0.45 | -2.2
O=C(COc1ccccc1)OCc1csc(Nc2ccccc2)n1 | 0.3 | 1.2
CN(C)Cc1nc2ccccc2c(=O)n1CC#N | 0.93 | -0.19
COc1ccccc1NC(=O)c1ccccc1C(=O)O | 0.1 | 0.04
CC(=C/C(=O)O)/C=C/c1ccco1 | 1.5 | 1.4
O=C(c1ccc(F)cc1)C1CCN(Cc2cn[nH]c2-c2ccccc2)CC1 | 0.51 | 0.12
O=C(O)CCC(=O)NNC(=O)CCC(=O)NCc1ccccc1 | 0.9 | -0.4
NS(=O)(=O)c1ccc(NC(=O)CCCCC(=O)Nc2ccc(S(N)(=O)=O)cc2)cc1 | 0.01 | -1.1
CC(Nc1ccccc1)C(=O)Nc1ccc(F)cc1 (stereo not given) | 0.46 | -1.8
COc1ccc(Oc2nc3c(c(=O)n(C)c(=O)n3C)n2Cc2ccccc2)cc1 | 0.3 | 3.1
Cn1c(SCc2cccnc2)nc2c(c1=O)SCC2 | 0.02 | -0.42

An excerpt from above in order of the KCNQ2 enhance baseline value, ascending.
SMILES | KCNQ2 enhance | KCNQ2 enhance baseline
CCOC(=O)/C(C#N)=C/c1cccc([N+](=O)[O-])c1 | 0.36 | -2.4
CCOC(=O)c1cc(-c2ccc(OC)cc2)n[nH]1 | 0.4 | -0.43
O=C(c1nc2ccccn2c1CN1CCN(c2ccccc2O)CC1)N1CCCC1 | 1.4 | 0.07
Cc1ccc(SCC(=O)Nc2nncs2)cc1 | 0.55 | 0.18

(more compounds)
SMILES | KCNQ2 enhance | KCNQ2 enhance baseline
CCCCC1(C)Cc2ccccc2C(=S)N1 (stereo not given) | 1.2 | -1.3
CCN(Cc1ccccc1)C(=O)CS(=O)(=O)c1ccccc1 | 0.6 | -2.1
COc1ccc2oc(C(=O)OCC(=O)NCc3ccco3)c(C)c2c1 | 0.36 | 0.1
CC1CCCCN1C(=O)C1COc2ccccc2O1 (stereo not given) | 0.28 | -0.07
CCC(=O)Nc1cc(ON=C(C)C)cc([N+](=O)[O-])c1 | 0.21 | -0.12
Cc1nnc(NC(=O)/C=C/c2ccco2)s1 | 0.34 | -0.67
COc1ccc(CN2CCN(S(=O)(=O)c3ccc(NC(C)=O)cc3)CC2)c(OC)c1OC | 0.75 | -0.67
Clc1ccc(-n2cnnn2)cc1 | 0.78 | -0.01
CC1CCCN(C(=O)Nc2cccc(NC(=O)N3CCCC(C)C3C)c2)C1C (stereo not given) | 1.1 | -0.67
COC(=O)c1sccc1NC(=O)c1c(F)c(F)c(F)c(F)c1F | 0.39 | -2.3
CCOc1ccc(S(=O)(=O)NCCC(=O)NCC(c2cccs2)N2CCOCC2)cc1 (stereo not given) | 1.6 | 1.1
CCCCCCCN1CCC(=O)N([C@H](CO)c2ccccc2)CC1 | 0.94 | -0.72
O=C1CNC(=S)N1Cc1ccccc1 | 0.24 | 1.1

Pulled one by one from the list above, 2 records:
SMILES | KCNQ2 enhance | KCNQ2 enhance baseline
O=C(NCCCn1ccnc1)c1cc(S(=O)(=O)N2CCOCC2)ccc1F | 0.09 | 0.3
CC1CCCN(C(=O)Nc2cccc(NC(=O)N3CCCC(C)C3C)c2)C1C (stereo not given) | 1.1 | -0.67
